Screening data (PubChem BioAssay)
Biofilm kill mix – clotrimazole potentiators killing C. albicans biofilm, primary screen, 4-compound mixtures | AID 1242, 2008 | 0.02% of 120,000 active | C. albicans biofilm persisters + clotrimazole, fluorescence viability; primary screen in compound mixtures of four per well | inhibition, % at 7.6 µM;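 active = inhibition above 30.3% in the primary screen of four-compound pools, then above 30% when the compound was retested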;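 also: compounds exposed to preformed 24 h biofilms for 48 h; the number belongs to the whole pool; some results filed as inactive read as strong as hits; inactives centre near 12; 0% = biofilm with clotrimazole alone and 100% = kill control; retested singly at about 60 µM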
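System: C. albicans CAF4-2 wild-type biofilms; Medium: RPMI/MOPS medium, pH 7.0; Reagent: Clotrimazole, 50 µg/mL; Times: biofilm formation 24 h, compound exposure 48 h, 37 °C; Detection: 2-h Alamar Blue fluorescence, 535/590 nm excitation/emission; Evaluation: percent inhibition of biofilm viability.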
* hit, by the source's call.

#	SMILES	Biofilm kill mix
1	O=C(c1cc(F)ccc1F)C1CCCN(Cc2cccc(Cl)c2)C1 (centres undefined)	6.5
2	O=C(O)CCn1cc(C=C2C(=O)NC(=S)NC2=O)c(-c2cccc(Cl)c2)n1	25.5
3	Cc1ccc(O)c(C(=O)c2cc(C(=O)NCc3ccccc3)c(=O)n(Cc3ccccc3)c2)c1	-7.8
4	COc1nc2ccccc2c(=O)n1-c1ccc(C)cc1	16.3
5	CCOc1ccc(N2C(=O)NC(=O)/C(=C\c3ccccc3[N+](=O)[O-])C2=O)cc1	21.5
6	S=C1Nc2ccccc2Sc2ccccc21	4.2
7	CC(C)Sc1nnc(OC(=O)N(C)C)n1-c1ccccc1	15.4
8	COc1ccc(/C=C2\C(=O)NC(=O)N(CCC3=CCCCC3)C2=O)c(OC)c1	-5.4
9	CCOCCc1c(O)[nH]c(=S)[nH]c1=O	23.0
10	COc1ccc(/C=C2\C(=O)NC(=O)N(Cc3ccccc3)C2=O)c(OC)c1OC	19.2
11	Cc1ccc(/C=C2\C(=O)NC(=S)N(c3ccccc3F)C2=O)s1	12.9
12	COc1ccc2c(c1)NP(=S)(Oc1ccccc1)N2 (centres undefined)	14.1
13	O=C(O)CC1OCC=C2CN3CCC45c6ccccc6NC4C1C2CC35 (centres undefined)	2.6
14	CN1C[C@@H]2C[C@@H](c3cccn3-c3ccccn3)N3CCC[C@@]23C1=O	15.8
15	CCCCn1c(O)c(/C(C)=N/NC(=O)Nc2ccccc2)c(=O)[nH]c1=O	10.5
16	CC(=O)OC1N=C(c2ccccc2Cl)c2cc(Br)ccc2NC1=O (centres undefined)	20.0
17	CCCCn1c(N)c(N(CCOC)C(=O)CN2CC=C(c3ccccc3)CC2)c(=O)[nH]c1=O	6.0
18	Cc1nn(Cc2ccc(Cl)cc2Cl)c(Cl)c1C(=O)O	12.1
19	CCCCS(=O)(=O)N1CCN(C(=N)N[N+](=O)[O-])CC1	18.5
20	O=C1NC(=O)C2=Cc3ccc(O)cc3OC2(O)N1 (centres undefined)	21.1

2 records drawn at random from those above:
#	SMILES	Biofilm kill mix
16	CC(=O)OC1N=C(c2ccccc2Cl)c2cc(Br)ccc2NC1=O (centres undefined)	20.0
6	S=C1Nc2ccccc2Sc2ccccc21	4.2

New compounds follow.
#	SMILES	Biofilm kill mix
21	O=C(COc1ccccc1)N1CCN(C2CC3CCC2C3)CC1 (centres undefined)	16.1
22	COc1c(O)ccc2c1-c1c3c(cc4c1C(C2)N(C)CC4)OCO3 (centres undefined)	10.1
23	Cc1cc(N2CCOCC2)ccc1/C=C1\C(=O)NC(=O)N(c2ccccc2)C1=O	-0.1
24	Cn1c(O)c(N=Nc2cccc(S(=O)(=O)N3CCOCC3)c2)c(=O)n(C)c1=O	13.0
25	O=C1NC(=O)N(c2ccccc2)C(=O)/C1=C/c1ccoc1	-6.1
26	CC(=O)c1c(C)n(Cc2ccccc2Cl)c2ccc(O)cc12	17.7
27	O=C(O)Cn1cc(/C=C2\C(=O)NC(=O)N(Cc3ccco3)C2=O)c2ccccc21	3.6
28	Clc1ccc(COC(Cn2ccnc2)c2ccc(Cl)cc2Cl)cc1 (centres undefined)	14.1
29	C/C(=N\Nc1ccccc1)c1c(O)n(-c2ccccc2)c(=O)[nH]c1=O	20.2
30	O=C(Nc1ccc(F)cc1F)c1cccn(Cc2ccccc2)c1=O	-3.0
31	Cc1cc(Cl)ccc1C(=O)C1CCCN(Cc2ccon2)C1 (centres undefined)	-1.9
32	O=c1[nH]c(=S)n(CCC2=CCCCC2)c(O)c1/C=N/N1CCOCC1	14.8
33	CCOC(=O)CSCCOc1ccc(C=C2C(=O)NC(=O)NC2=O)cc1OC	16.1
34	CC(=NCCN1CCCCC1)c1c(O)n(-c2ccccc2)c(=O)[nH]c1=O	20.2
35	CCCCC1(CN2CCCC2=O)C(=O)NC(=O)NC1=O	13.8
36	COc1ccc(C(=O)c2nc3ccccc3n2C(C)C)cc1	10.9
37	COc1ccc(C(=O)C2CCCN(C3CSCCSC3)C2)c(OC)c1 (centres undefined)	-4.2
38	O=P1(Oc2ccccc2)OCCCS1 (centres undefined)	17.4
39	O=C1NC(=O)N(c2ccc(Br)cc2)C(=O)/C1=C/c1ccsc1	25.9
40	COc1ccc(-n2c(O)c(/C=C/C=Nc3ccccc3)c(=O)[nH]c2=O)cc1	7.1
41	COc1ccc(C(=O)C2CN(C)CC2c2ccc(Cl)cc2)cc1 (centres undefined)	15.1
42	Cc1ccccc1CN1CCN(C(=O)Cc2ccccc2)CC1	21.6

From no. 23 to 39, copied from above:
#	SMILES	Biofilm kill mix
23	Cc1cc(N2CCOCC2)ccc1/C=C1\C(=O)NC(=O)N(c2ccccc2)C1=O	-0.1
24	Cn1c(O)c(N=Nc2cccc(S(=O)(=O)N3CCOCC3)c2)c(=O)n(C)c1=O	13.0
25	O=C1NC(=O)N(c2ccccc2)C(=O)/C1=C/c1ccoc1	-6.1
26	CC(=O)c1c(C)n(Cc2ccccc2Cl)c2ccc(O)cc12	17.7
27	O=C(O)Cn1cc(/C=C2\C(=O)NC(=O)N(Cc3ccco3)C2=O)c2ccccc21	3.6
28	Clc1ccc(COC(Cn2ccnc2)c2ccc(Cl)cc2Cl)cc1 (centres undefined)	14.1
29	C/C(=N\Nc1ccccc1)c1c(O)n(-c2ccccc2)c(=O)[nH]c1=O	20.2
30	O=C(Nc1ccc(F)cc1F)c1cccn(Cc2ccccc2)c1=O	-3.0
31	Cc1cc(Cl)ccc1C(=O)C1CCCN(Cc2ccon2)C1 (centres undefined)	-1.9
32	O=c1[nH]c(=S)n(CCC2=CCCCC2)c(O)c1/C=N/N1CCOCC1	14.8
33	CCOC(=O)CSCCOc1ccc(C=C2C(=O)NC(=O)NC2=O)cc1OC	16.1
34	CC(=NCCN1CCCCC1)c1c(O)n(-c2ccccc2)c(=O)[nH]c1=O	20.2
35	CCCCC1(CN2CCCC2=O)C(=O)NC(=O)NC1=O	13.8
36	COc1ccc(C(=O)c2nc3ccccc3n2C(C)C)cc1	10.9
37	COc1ccc(C(=O)C2CCCN(C3CSCCSC3)C2)c(OC)c1 (centres undefined)	-4.2
38	O=P1(Oc2ccccc2)OCCCS1 (centres undefined)	17.4
39	O=C1NC(=O)N(c2ccc(Br)cc2)C(=O)/C1=C/c1ccsc1	25.9

A portion of the library; count on the stated rates, not on these rows.
